# 2A StopGo – lowers the luciferase signal of an FMDV 2A StopGo reporter. human cells with a luciferase reporter of 2A StopGo recoding; control for the full effect not named in the record. Potency, µM (top dose mostly 57.9 µM), without a hit: at the highest dose signal change, negative = less light. 410,000 compounds, 1.2% hits. AID 1159524; active = well fitted falling curve with a large enough effect; inconclusive = small, poorly fitted or top-dose-only effect; inactive = no such curve, though single readings can be large or run the other way; tested in HEK293T cells; note: % is set by controls: 0 for no effect and ±100 for the full control effect; nearly all actives have a fitted effect of over 45% in size; luciferase light after 4 h
# SARS PLpro yeast – blocks SARS-CoV papain-like protease in a yeast assay. 330,000 compounds, 0.19% hits. S. cerevisiae expressing SARS-CoV PLpro, growth rescue; control for the full effect not named in the record. Potency, µM (highest dose often 32.9 µM), inactives show at the highest dose activity, positive = growth rescue. AID 485353; active means well fitted rising curve with a large enough effect; inconclusive means small, poorly fitted or top-dose-only effect; inactive means no such curve, though single readings can be large or run the other way; note: 0% is about no effect; nearly all actives have a fitted effect of over 55% in size; growth read by luminescence after 48 h
# Cruzain noTriton – cruzain (T. cruzi) inhibition without detergent; P25779; purified cruzain, Z-FR-AMC fluorescence, no detergent; AID 1476; Potency, µM, without a hit: max response, negative = inhibition, usual class: inhibitors; 200,000 compounds, 2.3% hits;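 note: plate controls were enzyme without inhibitor for no effect and buffer without enzyme for full effect; nearly all actives have a fitted effect of over 40% in size; top concentration of the series not given in the record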
# Target sequence (P25779 123-467 limits assumed): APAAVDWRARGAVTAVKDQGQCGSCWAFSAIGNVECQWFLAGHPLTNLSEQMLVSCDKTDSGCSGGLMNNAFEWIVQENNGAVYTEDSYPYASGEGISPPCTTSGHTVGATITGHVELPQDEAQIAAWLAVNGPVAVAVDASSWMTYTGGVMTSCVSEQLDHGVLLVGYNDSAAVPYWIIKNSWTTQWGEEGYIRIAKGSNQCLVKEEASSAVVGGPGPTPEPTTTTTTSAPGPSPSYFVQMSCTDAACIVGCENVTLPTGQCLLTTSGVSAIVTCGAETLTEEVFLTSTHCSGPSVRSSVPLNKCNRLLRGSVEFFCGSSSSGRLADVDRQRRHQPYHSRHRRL
#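 Purified cruzain at 1.5 nM, pre-incubated 15 min with compound at room temperature in 100 mM sodium acetate pH 5.5, 5 mM DTT, 0.00005% Triton X-100. Reaction started with 2 uM Z-FR-AMC; AMC fluorescence increase over 60 s gives rate.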
# LASV entry inh – Lassa virus entry inhibition. Lassa virus pseudotype entry inhibition, cell reporter; control for the full effect not named in the record. Potency, µM (highest dose often 37.9 µM), for the others: top-dose activity change, negative = inhibition, hits mostly inhibitors. 300,000 compounds, 1.2% hits; active means well fitted inhibition curve with a large enough effect; inconclusive means small, poorly fitted or top-dose-only effect, or effect the other way; inactive means flat fitted curve, though single readings scatter; tested in HEK293 cells; note: % is set by controls: 0 for no effect and ±100 for the full control effect; nearly all actives have a fitted effect of over 50% in size; luciferase read-out
# NS1 function inh – inhibitors of influenza NS1 protein function | 270,000 compounds, 0.4% hits | S. cerevisiae slowed by influenza A NS1, growth recovery by OD600 | AID 2326 | Potency, µM (highest dose often 46.1 µM), for inactives: top-dose activity, positive = more growth; active means well fitted rising curve with a large enough effect; inconclusive means small, poorly fitted or top-dose-only effect; inactive means no such curve, though single readings can be large or run the other way; note: nearly all actives have a fitted effect of over 50% in size
#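 Compounds were scored for reversing the slow growth caused by influenza A NS1 in S. cerevisiae, measured by optical density at 600 nm. Assay medium contained 2% galactose at pH 6.0; NS1-free yeast of the same strain were the positive control.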
# Cruzain Triton – blocks cruzain activity in presence of Triton detergent; P25779; purified cruzain, Z-FR-AMC fluorescence, 0.01% Triton; Potency, µM, without a hit: max response, negative = inhibition, usual class: inhibitors; 200,000 compounds, 0.43% hits; AID 1478;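 note: plate controls were neutral wells for no effect and buffer without enzyme for full effect; nearly all actives have a fitted effect of over 40% in size; top concentration of the series not given in the record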
#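 Purified cruzain (1.5 nM final) was preincubated with compounds for 15 min at room temperature in 100 mM sodium acetate pH 5.5, 5 mM DTT, 0.01% Triton X-100. Reaction started with 2 uM Z-FR-AMC; AMC fluorescence change over 60 s gave activity.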
# RE007 growth inh – less growth of the S. pombe RE007 Vpr strain. 360,000 compounds, 0.21% hits. S. pombe RE007 Vpr strain, BacTiter-Glo ATP luminescence, 24 h; control for the full effect not named in the record. Potency, µM (titrated, usually from 92.2 µM), without a hit: top-dose activity change, negative = less growth; active = well fitted falling curve with a large enough effect; inconclusive = small, poorly fitted or top-dose-only effect; inactive = no such curve, though single readings can be large or run the other way;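 note: % is set by controls: 0 for no effect and ±100 for the full control effect; nearly all actives have a fitted effect of over 50% in size; the assay follows cell death caused by Vpr and the record does not say whether a fall means rescue or toxicity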
#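 Fission yeast RE007 carrying one integrated HIV-1 vpr copy, seeded at OD 0.01 in PMG+AL medium with 23 nL pinned compound. Grown 24 h at 30 degrees; viability read by BacTiter-Glo luminescence after 5 min.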
# MARV entry inh – Marburg virus entry inhibition. Marburg virus pseudotyped entry inhibition, cell reporter; control for the full effect not named in the record; about a third of the inactives were read at about 46 µM. 300,000 compounds, 1.8% hits. Potency, µM (titrated, usually from 37.8 µM), for inactives: at the top dose activity change, negative = inhibition, usual class: inhibitors; active = well fitted inhibition curve with a large enough effect; inconclusive = small, poorly fitted or top-dose-only effect, or effect the other way; inactive = flat fitted curve, though single readings scatter; tested in HEK293 cells; about a fifth of its hits are not listed in these tables; note: % is set by controls: 0 for no effect and ±100 for the full control effect; luciferase read-out
# The depositor's hits bear a star; u = inconclusive; x = no result given; & = joins results of further samples; [ ] = remark or other dose. Unless noted, calls come from the whole dose curve; as a rule, active = well fitted curve in the direction sought with a large enough effect; inconclusive = small, poorly fitted or top-dose-only effect, or another doubt; inactive = no such curve, though single readings can be large; an effect the other way counts as inactive or inconclusive. Potency is the fitted concentration of half-maximal effect.
SMILES,2A StopGo,SARS PLpro yeast,Cruzain noTriton,LASV entry inh,NS1 function inh,Cruzain Triton,RE007 growth inh,MARV entry inh
c1csc(-c2ccc3ccccc3n2)c1,22%,3%,3%,u,-13%,-7.1%,u,u
COC(=O)c1cc(NC(=O)CC2C(=O)NCCN2C(=O)c2ccccc2)cc(C(=O)OC)c1 (stereo not given),0%,5%,14%,3%,-1%,-3.9%,16%,27%
Cc1ccc(C)c(CNS(=O)(=O)c2ccc3c(c2)C(C)(C)C(=O)N3C)c1,5%&-5%,-3%,-1%,-6%[46.1 µM],2%,-0.3%,10%,x
O=C1C(CN2CCCC2)CCCC1CN1CCCC1 (stereo not given),-10%,x,x,6%[46.1 µM],x,x,-14%,-1%
CC(CN1CCCCC1)OC(=O)c1ccc2c(c1)OCCO2 (stereo not given),48%[activator],-2%,x,4%,0%,x,-24%,10%[46.1 µM]
COc1cccc(NC(=O)C2CCCN2C(=O)Nc2ccccc2)c1 (stereo not given),-1%,-3%,x,1%,-10%,x,-4%,20%[46.1 µM]
Cc1ccccc1OCC(=O)Nc1ccc2c(c1)C(=O)N(CCC(=O)O)C2=O,7%,-7%,x,14%[46.1 µM],4%,x,2%,0%[46.1 µM]
CC(C)c1ccc(NC(=O)CSc2nc(=O)[nH]c3c2CCCC3)cc1,-21%,4%,x,-12%[46.1 µM],x,x,-19%,-18%
O=S(=O)(O)c1nc2ccccc2n1Cc1ccc(Cl)cc1Cl,-32%,-12%,6%,-4%,7%,-7.6%,8%,3%
CCN1CCSc2ccc(C(=O)NCc3cccc(Br)c3)cc21,-15%&-9%,-8%,-15%,x,-19%,-3.1%,-11%,-28%[46.1 µM]
Cc1cc(C)nc(Oc2ccc([N+](=O)[O-])cc2)n1,-15%,2%,x,5%,x,x,4%,22%[46.1 µM]
CCOC(=O)c1c(C)nc(-c2ccccc2)nc1NC(C)=O,-3%,14%,3%,u,3%,0.8%,-22%,u
Fc1ccc(C2c3cccn3CCN2C(=S)Nc2cccc(Br)c2)cc1 (stereo not given),u,-10%,x,-61%,x,x,-2%,-5%
O=C(c1cccs1)N1CCCc2cc(NS(=O)(=O)c3ccc(F)cc3F)ccc21,-3%,x,-3%,-6%[46.1 µM],x,-4.1%,x,x
COc1ccc(Oc2c(C)nc(SCC(=O)c3ccc(Cl)cc3)[nH]c2=O)cc1,2%,-3%,x,4%,-13%,x,-8%,0%[46.1 µM]
Cc1ccc(CS(=O)(=O)c2nsc(C)c2C#N)cc1,-2%,-1%,x,-1%[46.1 µM],x,x,-4%,u
Cc1oc2cc3oc(=O)c(CC(=O)O)c(C)c3cc2c1-c1ccccc1,-13%,2%,x,x,7%,x,-11%,x
CCC1CCCCN1C(=O)CSc1nc(N)c(NC(=O)c2ccco2)c(=O)[nH]1 (stereo not given),-10%,0%,-10%,x,11%,-2.4%,-14%,x
Cc1c(C)c(C)c2[nH]c(-c3ccc4c(c3)OCO4)nc2c1C,-7%,-6%,x,x,-32%,x,-18%,x
Cc1cc(C)n(-c2ccc(C(=O)NC3CCCCC3)cc2)n1,28%,-7%,x,4%,x,x,4%,u
O=C(NCc1ccc(F)cc1)C1CCN(C(=O)NCc2ccccc2)CC1,12%,1%,-4%,-3%,-5%,0.9%,-6%,21%
O=C1CSC(c2ccccc2)N1Cc1ccccn1 (stereo not given),-6%,1%,x,-2%,1%,x,1%,1%
CC(O)CNCCOc1ccccc1OCc1ccccc1 (stereo not given),-14%,0%,x,7%,-2%,x,5%,u
COc1ccccc1NC(=O)CN(Cc1ccco1)C(=O)c1ccc(-n2nc(C)cc2C)cc1,0%,2%,8%,-16%,2%,-2.8%,-3%,-1%&-1%
CCCCCC(=O)Nc1ccc(-c2cn3cccnc3n2)cc1,25%,-1%,x,u,2%,x,17%,2%
SMILES,2A StopGo,SARS PLpro yeast,Cruzain noTriton,LASV entry inh,NS1 function inh,Cruzain Triton,RE007 growth inh,MARV entry inh
CC/C(=N\NC(=O)c1cc(C)nc2ccccc12)c1ccc(C)s1,-10%,1%,7%,u,11%,-2.0%,-15%,u
CCOc1ccccc1C(=O)OCC(=O)Nc1ccc(N2CCCCC2)cc1,-1%,-11%,-1%,0%,-19%,-2.8%,2%,-14%
Cc1ccc(S(=O)(=O)N2CCN(C(=O)COC(=O)CCOc3ccccc3C)CC2)cc1,0%,4%,x,-27%,x,x,0%,u
COc1ccc(S(=O)(=O)N2CCC(c3nc4ccccc4s3)CC2)cc1OC,-24%,x,1%,0%[46.1 µM],x,5.2%,x,7%[46.1 µM]
C/[N+]([O-])=C\c1coc2ccccc2c1=O,-15%,6%,-10%,4%,-2%,3.3%,-3%,29%
NNC(=O)[C@@H]1C[C@@H]1c1ccccc1,-20%,-7%,16%,2%,3%,-1.5%,0%,-2%
CCNC(=O)CN(c1ccc(Br)c(C)c1)S(C)(=O)=O,4%,0%,x,-19%,0%,x,5%,5%[46.1 µM]
CC(c1ccccc1)N1CC(C(=O)N2CCN(c3ccc(F)cc3)CC2)CC1=O (stereo not given),-20%,x,26%,5%,2%,1.9%,8%,10%
CCOC(=O)CSc1nnc(CNC(=O)c2ccc(S(=O)(=O)N3CCOCC3)cc2)n1C,-6%,2%,x,-10%,x,x,11%,10%[46.1 µM]
COC(=O)c1cc(C(=O)OC)[nH]n1,-7%,-1%,x,8%,-2%,x,-3%,14%[46.1 µM]
O=C(Nc1ccc(N2CCOCC2)cc1N1CCOCC1)c1ccccc1,-15%,9%,x,-25%,x,x,5%,-29%
COc1ccc(/C=C(/NC(=O)c2ccccc2)c2nc3ccccc3[nH]2)cc1OC,-4%,5%,u,u,-29%,-4.0%,2%,1%
Cc1ccc2cc(/C=C3\N=C(c4ccccc4)OC3=O)c(N3CCOCC3)nc2c1,-17%,-12%,u,-4%,4%,-12%,15%,10%
Cc1ccc(-n2c(C)nc3c(cnn3-c3ccccc3C)c2=O)cc1F,12%,x,0%,-13%[46.1 µM],x,-1.3%,x,5%[46.1 µM]
Cc1ccc(CSC2=Nc3ccccc3C3=NC(CC(=O)NC4CCCCC4)C(=O)N23)cc1 (stereo not given),6%,x,0%,-5%[46.1 µM],x,-3.6%,x,x
COc1ccc(C(C(=O)NC(C)(C)C)N(C(=O)CCC(=O)Nc2cc(C)on2)c2cc(C)cc(C)c2)cc1 (stereo not given),3%,-3%,x,x,12%,x,-4%,u
Cn1c(=O)c2c(nc(NCCc3ccccc3)n2Cc2cccc(Br)c2)n(C)c1=O,-13%,x,-1%,1%[46.1 µM],x,-8.2%,x,u
COc1ccccc1/C=C/C(=O)OCCN1CCOCC1,10%,-3%,1%,2%,13%,-1.8%,-19%,u
O=c1c2ccccc2[nH]c(=S)n1CC1CCCO1 (stereo not given),-7%,x,x,-7%,x,x,-1%,3%
OCCCNCc1ccc(N(c2ccccc2)c2ccccc2)cc1,-12%,-1%,x,-16%[46.1 µM],-20%,x,1%,u
c1ccc(N2CCN(c3nc(NCc4ccco4)c4ccccc4n3)CC2)cc1,28µM*,-4%,u,u,5%,-6.2%,5%,u
CC(=O)N(C(C)=O)N1C(=O)C2C3c4ccccc4C(c4ccccc43)C2C1=O (stereo not given),-11%,20%,x,x,4%,x,13%,x
CNC(=O)c1c(O)c2cccc3c2n(c1=O)CCC3,-10%,-11%,x,u,-38%,x,0%,3%
COc1ccc(NS(=O)(=O)c2cccc(C(=O)NNC(=O)c3cccc(NC(C)=O)c3)c2)cc1,-14%,-2%,x,-4%,x,x,-7%,12%
Cc1cccc(N2C(=O)CC(SC(N)=Nc3ccccc3)C2=O)c1 (stereo not given),-23%,0%,x,-14%,1%,x,-1%,-30%
SMILES,2A StopGo,SARS PLpro yeast,Cruzain noTriton,LASV entry inh,NS1 function inh,Cruzain Triton,RE007 growth inh,MARV entry inh
O=C(OCC(=O)N1CCCC1=O)c1ccc(O)cc1O,76%[activator],16%,x,-19%[46.1 µM],x,x,u,u
COCCn1nnnc1C(c1cccc(C#N)c1)N1CCCCCC1 (stereo not given),-4%,14%,1%,2%,-21%,-4.5%,-11%,-1%
Cc1cccc(C)c1NC(=O)CN1CCN(C(=O)CN2C(=O)NC3(CCCCC3C)C2=O)CC1 (stereo not given),-13%,-1%,x,-3%,x,x,3%,1%[46.1 µM]
CCCCN(C)C(=O)c1cc2cc3ccc(OC)cc3nc2s1,-51%,-12%,11%,u,-57%,-8.3%,u,10µM*
CC(=O)Nc1ccc(NC(=O)COC(=O)CCCc2c[nH]c3ccccc23)cc1,-14%,x,x,1%[46.1 µM],x,x,1%,0%
Cc1nnc(NC(=O)c2ccc(S(=O)(=O)N(C)Cc3ccccc3)cc2)o1,-1%,17%,-5%,-28%,-96%,-4.9%,3%,u
COc1cccc(C(=O)C2CCCN(C(=O)c3ccccc3Cl)C2)c1 (stereo not given),-5%,7%,x,-12%[46.1 µM],-13%,x,-6%,0%[46.1 µM]
O=C(NCc1ccccc1Cl)c1ccc2c(c1)OCO2,24%,2%,x,x,-18%,x,3%,x
Cc1ccc(-n2ccnc2SCC(=O)O)c(C)c1,-12%,9%,5%,19%,0%,-2.3%,15%,6%
CC1CCN(S(=O)(=O)c2ccc(C(=O)Nc3ncccc3O)cc2)CC1,-11%,6%,x,-2%,16%,x,4%,u
c1ccc(CNc2nc(-c3ccccn3)nc3ccccc23)cc1,u,-6%,x,u,-14%,x,-8%,u
BrC(=C\c1ccccc1)/C=N/N1CCN(c2ccccc2)CC1,16%,-3%,x,u,-3%,x,22%,u
N#C/C(=C1/CCCCCN1)c1nc2ccccc2[nH]1,32%[activator],9%,-3%,u,-6%,-13%,-1%,16%[46.1 µM]
COc1cc(O)c(C=Nc2ccccc2NS(=O)(=O)c2ccc(C)cc2)c(OC)c1,4%,x,x,8%,x,x,0%,21%
Cc1ccc(C(C)C)c(OCC(=O)Nc2sc3c(c2C#N)CC(C)(C)NC3(C)C)c1,u,-2%,x,-19%,-6%,x,10%,u
Cc1oc(-c2cccc(Cl)c2)nc1CS(=O)(=O)CC(=O)NCc1ccco1,-9%,0%,x,x,-1%,x,-1%,x

# High-throughput results from PubChem.
